High-throughput results from PubChem BioAssay.
Vaccinia mCherry = vaccinia inhibition (mCherry reporter). Vaccinia virus mCherry reporter infection, fluorescence; about a quarter of the inactives have no number. Potency, µM (highest dose often 36.5 µM), for the others: at the highest dose activity change, negative = inhibition, most hits filed as inhibitors. 310,000 compounds, 0.63% hits; active = well fitted inhibition curve with a large enough effect; inconclusive = small, poorly fitted or top-dose-only effect; inactive = no such curve, though single readings can be large or run the other way; tested in A549 cells; further: nearly all actives have a fitted effect of over 35% in size; inactives centre near -10
VACV Venus inh = vaccinia inhibition (Venus reporter); Potency, µM (titrated, usually from 36.5 µM), inactives show at the highest dose activity change, negative = inhibition, hits mostly inhibitors; 330,000 compounds, 0.46% hits; Vaccinia virus Venus reporter expression, fluorescence; AID 720580; active means well fitted inhibition curve with a large enough effect; inconclusive means small, poorly fitted or top-dose-only effect; inactive means no such curve, though single readings can be large or run the other way; tested in A549 cells; further: nearly all actives have a fitted effect of over 30% in size; inactives centre near -10
Numbers without * were called inactive; i = inactive; ? = inconclusive; nt = no result given; & = joins results of further samples; [ ] = dose if it differs, or a comment. On the % scale 0 is the no-effect control and ±100 the full control effect; potency means the concentration at half of the fitted maximal effect.

entry	SMILES	Vaccinia mCherry	VACV Venus inh
1	Cc1ccc2nc(C)cc(C(=O)N3CCCC(N4CCN(c5ccccc5C)CC4)C3)c2c1 (stereo not drawn)	-11%	-16%
2	COc1cccc(CNC(=O)C2(C)Oc3ccccc3NC2=O)c1 (stereo not drawn)	-18%	-8%
3	COc1cc(OC)cc(C(=O)NNC(=O)NC2CCCCC2)c1	-26%	-16%
4	N#Cc1ccccc1NC(=O)C(=O)NCC(c1cccnc1)N1CCc2ccccc21 (stereo not drawn)	-3%	-1%
5	COc1ccc(S(=O)(=O)N(C)C[C@H]2Oc3ccc(NC(=O)Cc4cn(C)c5ccccc45)cc3C(=O)N([C@@H](C)CO)C[C@@H]2C)cc1	?	?
6	Cc1cc(C)c(S(=O)(=O)Nc2ccc(-c3ccc(N4CCCCC4)nn3)cc2)c(C)c1	-15%	-19%
7	COc1ccc(Br)cc1/C=C/C(=O)NC(=S)Nc1ccc(Cl)c(C(=O)O)c1	-3%	2%
8	CC(=O)Nc1ccc(NC(=O)COc2ccc(S(=O)(=O)N3CCCC3)cc2C)cc1	i	-8%
9	OC(c1ccc2ccccc2n1)c1c(Cl)cccc1Cl (stereo not drawn)	-16%	-9%
10	COc1ccc(NC(=O)c2cccn2-c2nnc(N3CCCCC3)s2)c(OC)c1	-11%	-7%
11	Cc1cc2ncn(C(=O)N3CCOCC3)c2cc1C	-15%	-6%
12	Cc1cc(-c2nnc(SCC(=O)NC3CCCC3)o2)no1	-20%	-13%
13	CC(=O)c1ccccc1OC(=O)COc1ccc([N+](=O)[O-])cc1	-23%	-4%
14	CN(C)CCCN1C(=O)C2CCc3[nH]c4ccccc4c3C2C1=O (stereo not drawn)	i	-8%
15	O=c1c(-c2ccccc2)coc2c(CN3CCOCC3)c(O)ccc12	nt	-1%
16	CO/N=C(/CS(=O)Cc1ccc(Cl)cc1)c1ccc(Cl)cc1 (stereo not drawn)	-14%	-13%
17	O=C1COc2ccccc2CN1	nt	-12%
18	Cc1nnc(NC(=O)C2CC(=O)N(C(C)c3ccccc3)C2)s1 (stereo not drawn)	-1%	-11%
19	COc1cc(OC)c(NC(=O)c2nn(C)c3c2COc2ccccc2-3)cc1Cl	-16%	-10%
20	Cc1cccc(C)c1NC1=C(Cl)C(=O)OC1OC(=O)c1ccccc1 (stereo not drawn)	?	?
21	CC(=O)Nc1c(O)nc(SCC(=O)N2CCCCC2)[nH]c1=O	-14%	-10%
22	CC1CCc2nc(NC(=O)CCSc3ccccc3)sc2C1 (stereo not drawn)	-6%	?
23	COC(C(=O)Nc1ccc(C(C)=O)cc1)c1ccccc1 (stereo not drawn)	i	-5%
24	Cc1cc(OCC(=O)N2CCN(CCc3ccccn3)CC2)cc(C)c1Cl	-24%	-9%
25	CNC(=O)C1CCC(=O)N1Cc1ccc(C)cc1 (stereo not drawn)	nt	-13%
26	O=C(CCNS(=O)(=O)c1ccc2[nH]c(=O)oc2c1)NCc1ccccc1	0%[7.34 µM]	0%[7.34 µM]
27	COC(=O)CSc1nc2c(c(-c3ccc(O)cc3)c1C#N)CCCC2	-26%	-28%
28	COc1ccc(NC(=O)c2cc3c(Cl)nc4ccccc4c3s2)c(OC)c1	-8%	-4%
29	CCCOC(=O)c1ccc(N2C(=O)c3ccccc3C2=O)cc1	-7%	-5%
30	CC(C)(C)OC(=O)N1CCC(c2c(C(=O)N3CCOCC3)cnn2-c2ccccc2Cl)CC1	3%	-4%

Of the compounds above, three contain an NH in an aromatic ring.
entry	SMILES	Vaccinia mCherry	VACV Venus inh
14	CN(C)CCCN1C(=O)C2CCc3[nH]c4ccccc4c3C2C1=O (stereo not drawn)	i	-8%
21	CC(=O)Nc1c(O)nc(SCC(=O)N2CCCCC2)[nH]c1=O	-14%	-10%
26	O=C(CCNS(=O)(=O)c1ccc2[nH]c(=O)oc2c1)NCc1ccccc1	0%[7.34 µM]	0%[7.34 µM]

Other structures.
entry	SMILES	Vaccinia mCherry	VACV Venus inh
31	Cc1ccc2nc(-c3ccc(N4C(=N)SC5CS(=O)(=O)CC54)cc3)sc2c1 (stereo not drawn)	-12%	-11%
32	CSc1ccc(/C=C(\NC(=O)c2ccco2)C(=O)N2CCCCC2)cc1	i	-11%
33	Cc1ccc(N2C(=O)CSC23C(=O)N(CC(=O)NCc2ccccc2)c2ccccc23)cc1 (stereo not drawn)	-7%	-13%
34	COc1cccc(N(CC(=O)NCCSCc2ccco2)S(=O)(=O)c2ccccc2)c1	-16%	-20%
35	O=C(NCc1cccnc1)c1ccccc1-c1nc(-c2ccccc2)no1	i	-10%
36	COC(=O)CN1C(=O)[C@H]2[C@@H](c3ccc(C)o3)N3C(=O)CN(CC4CC4)C(=O)[C@@]3(Cc3ccccc3)[C@H]2C1=O	-2%	1%
37	O=[N+]([O-])c1ccc(COc2ccc(-c3[nH]ncc3-c3ccc(Cl)cc3)c(O)c2)cc1	-22%	?
38	COc1cccc(/C=N/NC(=O)c2[nH]nc3c2CCc2ccccc2-3)c1O	?	?
39	CCOC(=O)CC(NC(=O)Cn1nnc(-c2ccccc2)n1)c1ccc(OC)cc1 (stereo not drawn)	i	-20%
40	O=C(c1ccccc1Cl)N1CCSCC1	i	-15%
41	Cc1cccc(-n2ccnc2SCC(=O)Nc2cc(C(F)(F)F)ccc2Cl)c1	7%	0%
42	Nc1ncnc(Sc2ccc(Cl)cc2)c1[N+](=O)[O-]	-26%	?
43	CN(C)c1ccc(Cl)cc1N	-4%	-22%
44	C=CCc1cccc(CNc2ccc(S(=O)(=O)Nc3nccnc3OC)cc2)c1O	?	0%
45	CC(=O)Nc1ccc(S(=O)(=O)N2CCSC2c2ccccc2Cl)cc1 (stereo not drawn)	-11%	-26%
46	C=CCN(CC=C)C(=S)NC(=O)/C=C/c1ccc(C)cc1	-14%	1%
47	COc1ccc(C[C@@H]2CN3C(=NC[C@@H]3C)N2CCNC(=O)c2ccc(C)c(Br)c2)cc1	-18%	-22%
48	CCC(=O)OC1(C)C(=O)C2=COC(c3ccc(OC)cc3)=CC2=C(Br)C1=O (stereo not drawn)	i	-17%
49	CN(C)/C=N/c1c(C#N)cnn1-c1ncnc2sc(-c3ccccc3)cc12	-8%[1.46 µM]	?
50	Cc1ccc(Cl)cc1N1CCN(C(=O)c2cc(S(=O)(=O)N3CCCC3)cn2C)CC1	-27%	-19%
51	Cc1c(Cl)cccc1NC(=S)NCCc1ccc(Cl)cc1	-12%	-28%
52	Cc1ccc(C)c(N2C(=O)CC(Cc3ccc(Cl)cc3)C2=O)c1 (stereo not drawn)	i	-9%
53	CCN(CC)S(=O)(=O)c1cc(C(=O)Nc2ccncc2)ccc1Cl	?	-29%
54	Cc1cccc(S(=O)(=O)N(C)C[C@H]2OCc3cnnn3CCCC(=O)N([C@H](C)CO)C[C@@H]2C)c1	-7%	-13%
55	CN(CC(=O)Nc1cccc(F)c1)C(=O)c1cccnc1Sc1ccccc1Cl	i	-23%
56	CN1C(=O)CC(N2CCN(c3ccccc3)CC2)C1=O (stereo not drawn)	-13%	-16%
57	CN1C[C@H]2CON(C)[C@H]2C[C@H]1c1cccc(-c2ccccc2)c1	-21%	3%
58	O=C(CSc1nc(C2CC2)nc2ccccc12)Nc1cccc(O)c1	2%	8%
59	O=C(Nc1ccncc1)c1ccccc1[N+](=O)[O-]	i	-11%
60	N#Cc1ccccc1Sc1ccccc1C(=O)OCC(=O)NC1CCS(=O)(=O)C1 (stereo not drawn)	-14%	0%

Whole records, looked up by structure. Screens in order: Vaccinia mCherry | VACV Venus inh
CN1C(=O)CC(N2CCN(c3ccccc3)CC2)C1=O (stereo not drawn) in the list: -13% | -16%
CCN(CC)S(=O)(=O)c1cc(C(=O)Nc2ccncc2)ccc1Cl in the list: ? | -29%
CCOC(=O)CC(NC(=O)Cn1nnc(-c2ccccc2)n1)c1ccc(OC)cc1 (stereo not drawn) in the list: i | -20%

In the list so far, these have fluorine:
entry	SMILES	Vaccinia mCherry	VACV Venus inh
41	Cc1cccc(-n2ccnc2SCC(=O)Nc2cc(C(F)(F)F)ccc2Cl)c1	7%	0%
55	CN(CC(=O)Nc1cccc(F)c1)C(=O)c1cccnc1Sc1ccccc1Cl	i	-23%

By substructure, those above with bromine.
entry	SMILES	Vaccinia mCherry	VACV Venus inh
7	COc1ccc(Br)cc1/C=C/C(=O)NC(=S)Nc1ccc(Cl)c(C(=O)O)c1	-3%	2%
47	COc1ccc(C[C@@H]2CN3C(=NC[C@@H]3C)N2CCNC(=O)c2ccc(C)c(Br)c2)cc1	-18%	-22%
48	CCC(=O)OC1(C)C(=O)C2=COC(c3ccc(OC)cc3)=CC2=C(Br)C1=O (stereo not drawn)	i	-17%

Carrying on.
entry	SMILES	Vaccinia mCherry	VACV Venus inh
61	Cc1ccc(S(=O)(=O)NC(C)C(=O)Nc2cccc([N+](=O)[O-])c2)cc1 (stereo not drawn)	-18%	-8%
62	Nc1nc(OCc2ccccc2)c2[nH]cnc2n1	-21%	?
63	O=[N+]([O-])c1ccc(-c2ccc(C=Nc3cccc4ccccc34)o2)cc1	i	-11%
64	CC1(C(=O)NS(=O)(=O)c2cccc(OC(F)F)c2)CCN1C(=O)CC1CCCC1 (stereo not drawn)	2%	5%
65	Cc1ccc(C(NC(=O)N2CCOCC2)=C(Cl)Cl)cc1F	?	?
66	O=C1C2C3C=CC(c4ccccc4)(C2C(=O)N1c1cccc(Cl)c1)C1C(=O)N(c2cccc(Cl)c2)C(=O)C31 (stereo not drawn)	?	?
67	COc1cccc(C(C)(O)c2nc(-c3ccccc3C)cs2)c1 (stereo not drawn)	-12%	-7%
68	CC(C)CC(=O)Nc1ccc2nc(SCC(=O)N3CCCC3)sc2c1	-3%	-3%
69	Cc1ccc(S(=O)(=O)/N=C(\CN2CCOCC2)N2CCCC2)cc1	-16%	-11%
70	COc1cc(C2N=C(N)Nc3nc4ccccc4n32)ccc1OCC(=O)O (stereo not drawn)	4%	-1%
71	Cc1cccc2c(C(=O)N3CCN(C(=O)c4ccco4)CC3)cc(-c3cccc(Br)c3)nc12	i	-22%
72	CCC1Oc2ccc(C)cc2N(CC(=O)N(Cc2ccc(C)o2)C2CCCC2)C1=O (stereo not drawn)	-12%	-2%
73	Cc1c(NC(=O)Nc2ccc(Cl)c(C(F)(F)F)c2)c(=O)n(-c2ccccc2)n1C	-19%	-10%
74	O=[N+]([O-])c1cc(C(F)(F)F)ccc1-n1nnc2ccccc21	-4%	-12%
75	COc1ccc(CN(Cc2ccc(OC)cc2)S(=O)(=O)c2ccc(-n3cnnn3)c(C)c2)cc1	-21%	-16%
76	Cc1ccc2c(c1)Cc1nc3ccccc3nc1-2	i	-6%
77	COc1ccc(CNC(=O)c2ccc(CS(=O)(=O)c3ccccc3OC)o2)cc1	-8%	-7%
78	CCS(=O)(=O)NCCc1csc(-c2ccccc2)n1	i	-5%
79	Cc1nn2c(=O)cc(COC(=O)c3ccc(NC(=O)COc4ccc(C)c(C)c4)cc3)nc2s1	-14%	-23%
80	O=C(NC(=S)Nc1cccc([N+](=O)[O-])c1)c1ccco1	-14%	-4%
81	CC(C)CN1C(=S)SC(C)(C)C1n1oc(=O)n(-c2ccc(Cl)cc2)c1=O (stereo not drawn)	-1%	-12%
82	CCN(CC(=O)Nc1sc2c(c1C#N)CCCC2)Cc1nc2ccccc2c(=O)[nH]1	-12%	-7%
83	Cc1ccc(NC(=O)CN(C)S(=O)(=O)c2cccs2)c(Br)c1	-21%	-13%
84	O=C(CCCCn1c(=O)c2ccccc2n(CC(=O)NC2CCCC2)c1=O)NC1CCCC1	-15%	-7%
85	Cc1ccc2c(c1)sc1nc(=O)n(-c3ccccc3)c(=O)n12	-1%	-15%
86	CSc1c(CN2CCN(C)CC2)c2ccccc2n1C	i[7.34 µM]	0%[7.34 µM]
87	CC1(C(=O)Nc2cnc3ccccc3c2)CCN1CCOc1ccccc1 (stereo not drawn)	-2%	4%
88	CC1(C)CC(=O)c2c(O)cc(OCC(=O)Nc3ccc(S(N)(=O)=O)cc3)cc2O1	7%	-8%
89	Cc1ccc(S(=O)(=O)c2cc3c(=O)n4ccccc4nc3n(C3CCCCC3)c2=N)cc1	1%	-5%
90	CC(=O)Oc1cccc(/C=C2\C=C(c3ccc(C)cc3)OC2=O)c1	i	-2%
91	CCOC(=O)Cn1c(=O)n(CC2CCCO2)c2nc(-c3ccccc3OC)nc(C(N)=O)c21 (stereo not drawn)	0%[7.34 µM]	-8%[7.34 µM]
92	CN1CCC(N(C)CC(=O)Nc2ccc3c(c2)OC(F)(F)O3)CC1	-4%	-20%
93	CCCn1nnnc1SCC(=O)N1C(C)CCCC1C (stereo not drawn)	4%	-9%
94	Cc1cccc(CCNC(=O)C2CCN(c3ncnc4c3nc3n4CCCCC3)CC2)c1	i	-11%
95	CC(C)c1cc(=O)n2[nH]c(SCc3ccccc3)nc2n1	i	-9%
96	CCOc1ccc2ccccc2c1C(=O)N[C@@H]1C(=O)N2[C@@H]1SC(C)(C)[C@@H]2C(=O)O	i	-19%&-11%
97	COc1ccc(N2C(=O)C3C(C2=O)C(C(=O)c2ccccc2)N2CCCC32)cc1 (stereo not drawn)	-15%	-2%
98	COc1ccc(C(=O)NC2CCCc3ccccc32)cc1[N+](=O)[O-] (stereo not drawn)	-15%	-28%
99	CN(C)S(=O)(=O)c1cccc(NC(=O)Cc2ccc(Cl)cc2)c1	-9%	-23%
100	Clc1cc2nc3ccccn3c2cc1Cl	nt	-19%
101	CC(C)(C)c1nnc2sc(SCC(=O)N3CCCCC3)nn2c1=O	-25%	0%
102	CCC(C)NC(=O)c1cnn2c1NC(c1cccs1)CC2C(F)(F)F (stereo not drawn)	nt	-11%
